WNV protease inh = blocks West Nile virus NS2B-NS3 protease activity. AID 577. P06935. z-score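 (tested at a level between 10 and 100 µM)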. 65,000 tested, 0.18% active. WNV NS2B-NS3 protease, fluorogenic substrate Ex360/Em465; hits give low values;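 active = z-score at -3 or under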;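 note: score is relative to mean and spread of the compound wells of a plate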
Target sequence (P06935 1371-1501 limits assumed): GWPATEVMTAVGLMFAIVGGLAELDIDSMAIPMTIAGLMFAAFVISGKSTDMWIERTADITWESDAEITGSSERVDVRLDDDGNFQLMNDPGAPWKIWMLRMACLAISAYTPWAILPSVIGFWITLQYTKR
Target sequence (P06935 1502-1679 limits assumed): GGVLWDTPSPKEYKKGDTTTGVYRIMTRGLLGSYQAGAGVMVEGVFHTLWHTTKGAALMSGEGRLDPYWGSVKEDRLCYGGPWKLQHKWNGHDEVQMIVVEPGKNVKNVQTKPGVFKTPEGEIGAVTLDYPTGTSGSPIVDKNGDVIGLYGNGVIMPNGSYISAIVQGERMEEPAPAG
MT1-MMP promoter = MT1-MMP gene expression reporter suppression – cell-based, luciferase reporter, luminescence (AID 618). calls from a first round at 10 µM; hits with a dose series show EC50 in µM. 87,000 tested, 0.62% active. MT1-MMP promoter luciferase reporter cells, luminescence;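 active = over half of the reporter light lost at 10 µM or EC50 under 50 µM; inactive = the rest and hits that failed the dose series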;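 note: actives suppress MT1-MMP promoter-driven transcription so potencies describe inhibitors; HT1080 fibrosarcoma cells; overnight exposure; toxic or luciferase-blocking compounds were not removed from the actives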
Hsc70 = Hsc70 inhibitors, probe displacement, primary screen, biochemical, fluorescence polarization (AID 568). Hsc70 fluorescence polarization, probe displacement; higher % means a stronger effect; strong numbers were not always called active. one-dose displacement, % at 20 µM; IC50 in µM for titrated hits. 83,000 tested, under 10 active;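 active = displacement above 50% without optical interference and an IC50 on retest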;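 note: ATPase domain with a fluorescein-tagged ATP probe; 0% = vehicle and 100% = excess ADP; read after one hour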
Active calls of the source: *; i = inactive; · = not tested or not shown. Some of the compounds tested; count on the stated rates, not on these rows.

item | canonical_smiles | WNV protease inh | MT1-MMP promoter | Hsc70
1 | CN(CC(=O)N1CCCC1)S(=O)(=O)c1cc(Cl)ccc1Cl | 0.004 | i | -8.2%
2 | CN(C)S(=O)(=O)c1cc(C(=O)NCC2CCCO2)c(Cl)cc1Cl (stereo not given) | 0.34 | i | 3.3%
3 | CC1(C)OC(=O)C(=CNc2cccc(O)c2)C(=O)O1 | 0.72 | i | 1.3%
4 | COc1ccc(OC)c(CN(CCCN2CCOCC2)S(=O)(=O)c2ccc(NC(C)=O)cc2)c1 | 0.54 | i | 1.6%
5 | O=C(CCS(=O)(=O)c1ccc(Br)cc1)N1CCN(Cc2ccccc2)CC1 | -0.25 | i | 1.7%
6 | CCOn1c(=O)c(-c2cccs2)[n+]([O-])c2ccccc21 | · | i | 26%
7 | CCOC(=O)c1c(NC(=O)CNCCOC)sc2c1CCCC2 | · | i | -4.9%
8 | COCC(C)n1c(SCC(=O)NC(=O)Nc2ccc3c(c2)OCCO3)nc2ccccc2c1=O (stereo not given) | -0.0088 | i | 1.4%
9 | Cc1c(NC(=O)CSc2n[nH]c(-c3ccccc3)n2)c(=O)n(-c2ccccc2)n1C | · | i | 6.5%
10 | CCOc1nc(Oc2cccc(C(=O)O)c2)nc(Oc2cccc(C(=O)O)c2)n1 | -0.24 | i | -3.1%
11 | COc1ccc(C(=O)N2CCC(C(=O)NCc3ccccn3)CC2)cc1 | 1.1 | i | 3.9%
12 | O=C1N/C(=C\c2ccccc2)c2ccccc21 | 0.28 | i | -3.4%
13 | Cc1occc1C(=O)Nc1ccc(S(=O)(=O)N2CCCC2)cc1 | -0.41 | i | 6.6%
14 | CC(CN1c2ccccc2Sc2ccccc21)N(C)C (stereo not given) | 0.32 | i | -4.8%
15 | O=c1c2ccccc2nc(-c2ccc(Cl)c(Cl)c2)n1O | · | i | -3.2%
16 | Cc1cc(Nc2cc(F)ccc2C)n2ncnc2n1 | -0.31 | i | -1.0%
17 | CCOC(=O)C1(CC)CC(CSc2nc3ccccc3[nH]2)OC1=O (stereo not given) | -1 | i | 3.4%
18 | CCn1c(Cc2c(C)[nH]c3ccccc23)n[nH]c1=S | 0.09 | i | -0.7%
19 | O=S(=O)(c1ccc(F)cc1)c1nc(-c2ccccc2F)oc1N1CCCCC1 | · | i | 3.4%
20 | O=C(O)CCCN=C1NC2(CCCC2)Cc2ccccc21 | · | i | 6.2%

Single records (already shown). Order of screens: WNV protease inh	MT1-MMP promoter	Hsc70
Record of Cc1c(NC(=O)CSc2n[nH]c(-c3ccccc3)n2)c(=O)n(-c2ccccc2)n1C : ·	i	6.5%
Record of CCn1c(Cc2c(C)[nH]c3ccccc23)n[nH]c1=S : 0.09	i	-0.7%
Record of CCOc1nc(Oc2cccc(C(=O)O)c2)nc(Oc2cccc(C(=O)O)c2)n1 : -0.24	i	-3.1%
Record of CCOn1c(=O)c(-c2cccs2)[n+]([O-])c2ccccc21 : ·	i	26%

Additional records follow.
item | canonical_smiles | WNV protease inh | MT1-MMP promoter | Hsc70
21 | CC(=O)c1cc(-c2ccc(F)cc2)n(CCC(=O)Nc2cc(C)[nH]n2)c1C | -0.38 | i | -1.0%
22 | CCC(=O)N(Cc1cc2cc(OC)ccc2[nH]c1=O)c1cc(C)ccc1C | -0.77 | i | 0.2%
23 | NC(=O)c1nsc(C(=O)N(CC(=O)NCc2ccc3c(c2)OCO3)C2CCCC2)c1N | -1 | i | -5.6%
24 | COc1ccc2cc(CN(CC3COCCO3)S(=O)(=O)c3ccc(Cl)cc3)c(=O)[nH]c2c1 (stereo not given) | -0.96 | i | -3.6%
25 | Cc1cc(C)c2c(n1)nn1c(NCCCN(C)C)cc(C)nc21 | 2.3 | i | 0.2%
26 | COc1cc(NC(=O)COc2ccc(F)cc2)nc(OC)n1 | 0.5 | i | 1.8%
27 | Nc1n[nH]c(-c2ccc(Br)cc2)c1Cl | -1.9 | i | -0.7%
28 | CC1=NN(c2ccc(C(=O)OC(C)C)cc2)C(=O)/C1=C\C=C\c1ccco1 | · | i | 1.1%
29 | O=C(O)CCc1ccc(-c2ccc(Cl)cc2)n1Cc1ccco1 | 0.96 | i | -6.8%
30 | COc1ccc(OC)c(NC(=O)Cn2cc(C(=O)c3ccco3)c3ccccc32)c1 | 1.2 | i | 3.9%
31 | CC(=O)NC(CCS(C)(=O)=O)C(=O)Nc1ccc2c(c1)OCCO2 (stereo not given) | 0.69 | i | 1.8%
32 | Cc1c(NC(=O)COc2ncnc3ccccc23)c(=O)n(-c2ccccc2)n1C | 1.2 | i | 9.0%
33 | Cn1c(=O)c2c(nc(CN3CCOCC3)n2CC(=O)c2ccccc2)n(C)c1=O | 0.98 | i | -0.2%
34 | COc1nc2c(s1)C(=O)NCCC2 | -1.2 | i | 1.6%
35 | CC1C(=O)C(C)C(c2cccs2)NC1c1cccs1 (stereo not given) | 0.16 | i | -5.6%
36 | CCOC(=O)CNC(=O)c1sc(NC(=O)c2ccccc2F)nc1C | 0.5 | i | -4.7%
37 | c1ccc(CSc2nnc(SCc3ccccn3)s2)nc1 | 0.02 | i | -0.4%
38 | O=C(COC(=O)CCc1ccc(S(=O)(=O)N2CCCCC2)cc1)Nc1ccc2c(c1)OCO2 | 2.4 | i | 4.4%
39 | CCCCCCn1c(N2CCC(C(N)=O)CC2)nc2c1c(=O)[nH]c(=O)n2C | -0.27 | i | -1.6%
40 | CCOC(=O)CNC(=O)c1ccccc1Br | -0.39 | i | 4.7%
41 | COc1cccc(CC(NC(C)=O)C(=O)NC2CCN(S(=O)(=O)c3cccc4ccccc34)CC2)c1 (stereo not given) | · | i | -1.1%
42 | [O-][N+]1=C(c2cccs2)CN(O)C1 | -0.13 | i | -5.1%
43 | [O-][n+]1onc2c1CCc1c-2nc(-c2ccccc2)n1OCc1ccccc1 | -0.48 | i | 1.2%
44 | COc1cc(NC(=O)c2cccs2)c(C(=O)OCC(=O)NC(=O)NCc2ccccc2)cc1OC | · | i | 2.6%
45 | COc1ccc2cc(CN(CCO)C(=O)c3ccccc3F)c(=O)[nH]c2c1 | 0.98 | i | 0.1%
46 | O=C(COc1ccc(-c2ccccc2)cc1)N1CCN(C(=O)c2cccnc2)CC1 | -0.61 | i | -2.6%
47 | O=CN1CCN(C(=O)CN2C(=O)c3ccccc3C2=O)CC1 | 0.6 | i | -3.6%
48 | Cc1cc(-c2nnc(SCC(=O)N3C(C)CCCC3C)o2)no1 (stereo not given) | 0.97 | i | -3.9%
49 | CCOC(=O)c1cccc(NC(=O)CCn2cccc2)c1 | -1.2 | i | -0.7%
50 | CCOC(=O)Cn1nnc(-c2ccc(S(C)(=O)=O)cc2)n1 | -0.68 | i | 1.2%
51 | CCC(=O)Nc1ccc(Oc2ccc3c(c2)C(=O)N(c2ccc(O)cc2)C3=O)cc1 | · | i | -4.2%
52 | Cc1cc(N2C(=O)CC(N3CCN(c4ccc(C(=O)c5cccs5)cc4)CC3)C2=O)no1 (stereo not given) | -1 | i | 2.5%
53 | CCOC(=O)Cn1nnnc1CN(CCc1ccccc1)Cc1cc2cc(CC)ccc2[nH]c1=O | · | i | 5.1%
54 | Cc1nn(-c2ccccc2)c2[nH]c(=O)c(CNCC3CCCO3)cc12 (stereo not given) | -0.59 | i | -5.2%
55 | CCN1C(=O)/C(=C\N2CCN(c3cccc(Cl)c3)CC2)SC1=S | -0.71 | i | -3.5%
56 | O=C(Nc1nncs1)C1(c2ccccc2)CCCC1 | 1.1 | i | 10%
57 | Cc1cccc(NC(=O)C2CCN(S(=O)(=O)c3cccs3)CC2)c1 | · | i | 0.7%
58 | COc1ccccc1/C=N/NC1=NCCCCC1 | · | i | -1.4%
59 | Cn1cc(SCC(=O)NCC2CCCO2)c2ccccc21 (stereo not given) | -0.56 | i | 0.1%
60 | Clc1ccc(-n2nnnc2-c2ccccc2)cc1 | -0.15 | i | 6.3%
61 | CN(C)S(=O)(=O)N1CCN(C(=O)N2CCOCC2)CC1 | · | i | 8.3%
62 | O=C(O)c1cc(-c2ccco2)nc2ccc(Br)cc12 | -1.8 | i | 8.2%
63 | COc1ccc(OC)c(C(=O)c2oc3ccccc3c2NC(C)=O)c1 | 0.72 | i | 1.2%
64 | Cc1c(NC(=O)c2cc3nc(-c4ccc(Br)cc4)cc(C(F)(F)F)n3n2)c(=O)n(-c2ccccc2)n1C | · | i | 0.7%
65 | CC(C)C(=O)Nc1ccc(C(=O)c2ccccc2)cc1 | · | i | 3.3%
66 | C=CCn1c(CCNC(=O)C(C)(C)C)nc2ccccc21 | 0.77 | i | -6.9%
67 | CCc1cc(=O)oc2cc(C)c(CN3CCCC3)c(O)c12 | -1.2 | i | 3.0%
68 | CN(C)CCN1CC(C(=O)O)CC1=O (stereo not given) | 0.8 | i | 1.0%
69 | CCn1cc(C(=O)O)c(=O)c2cc(F)c(N3CCNCC3)cc21 | -0.16 | i | 1.0%
70 | CC(=O)c1ccc(N2CCCCCC2)c(F)c1 | 0.05 | i | -3.5%
71 | COc1ccc(OC)c(NC(=O)CSc2ncccc2C(=O)O)c1 | -0.13 | i | -5.6%
72 | CC(=O)c1cc2c(cc1NC(=O)Nc1cccc(Cl)c1)OCCO2 | 1.4 | i | 9.0%
73 | c1ccc2sc(N3CCN(Cc4nnnn4CC4CCCO4)CC3)nc2c1 (stereo not given) | 1.1 | i | 1.7%
74 | CC(C)(C)c1cc(CN2CCCC(O)C2)c(O)c(C(C)(C)C)c1 (stereo not given) | -0.08 | i | -4.4%
75 | CC(C)COC(=O)N(C)c1ccc(C(O)(C(F)(F)F)C(F)(F)F)cc1 | 0.01 | i | 1.2%
76 | O=C(c1ccccc1)N(Cc1cccs1)C1CCS(=O)(=O)C1 (stereo not given) | 0.02 | i | -0.3%
77 | CCOC(=O)/C(C#N)=C\c1cc(C)n(-c2ccccc2)c1C | · | i | -3.4%
78 | C/C(=N\NC(=S)NC(C)C)c1ccc(-n2ccnc2)cc1 | · | i | -0.4%
79 | CC(C)(C)CC(=O)Nc1ccc(C(N)=O)cc1 | · | i | -3.1%
80 | COCCNc1nc(SCC(=O)N2CCN(c3ccccc3)CC2)nc2ccccc12 | -0.6 | i | 1.9%

Later entries.
item	structure	WNV protease inh	MT1-MMP promoter	Hsc70
81	Cc1cn([C@H]2C[C@H](N=[N+]=[N-])[C@@H](CO)O2)c(=O)[nH]c1=O	-0.01	i	-3.8%
82	Cc1noc(C)c1COC(=O)c1cccc(S(=O)(=O)N2CCCCCC2)c1	-1.3	i	1.2%
83	CCNc1nc(Oc2ccc(=O)[nH]n2)nc(SC)n1	0.37	i	-4.4%
84	CCCSc1nc(C)c(CC(=O)O)c(=O)[nH]1	0.21	i	0.1%
85	Cc1onc(-c2ccccc2)c1C(=O)N1CCN(S(=O)(=O)c2ccc3c(c2)OCCO3)CC1	-0.99	i	4.8%
86	COc1ccc(-c2nnc(SCC#N)o2)cc1	0.01	i	0.4%
87	COc1ccc(NC(=O)CSc2nc3ccccc3c(=O)n2CCC(=O)N2CCCCC2)cc1	0.37	i	-4.0%
88	Cc1ccc(N2C(N)=NC(N)=NC23CCCC3)c(C)c1	0.6	i	0.7%
89	O=C(Nc1cccc(Cl)c1N1CCCCC1)c1ccc2c(c1)OCCO2	-1.3	i	0.4%
90	O=S(=O)(c1ccc(Oc2ccc(Br)cc2F)nc1)N1CCCCC1	0.81	i	6.8%
91	Cn1c(O)c(C=NC(CC(N)=O)C(=O)O)c(=O)n(C)c1=O (stereo not given)	-0.46	i	6.6%
92	Cc1ccc(-c2nnc(N3CCN(C(=O)c4ccco4)CC3)c3ccccc23)cc1	0.02	i	0.5%
93	Cc1c(Cl)cccc1-n1ccnc1SCC(=O)O	0.86	i	-0.8%
94	O=c1c2ccccc2nc(CSc2nnnn2-c2ccccc2)n1-c1ccccc1Cl	·	i	2.7%
95	Cc1noc(C)c1C(=O)OCC(=O)c1ccc[nH]1	-1.3	i	-6.8%
96	COc1ccc(N2CCN(C(=O)CSc3nnc(-c4cc5ccccc5cc4O)n3C)CC2)cc1	-1.3	i	3.8%
97	Cc1cc(=O)[nH]c2cc(O)ccc12	·	i	2.7%
98	CCCOc1c(Br)cc(/C=N/O)cc1OC	·	i	-1.2%
99	CC1=CC(C)C2(CO)COC(c3ccccc3O)C1C2C (stereo not given)	·	i	0.7%
100	COCCOC(=O)C1=C(C)NC2=C(C(=O)CC(C)(C)C2)C1c1cccnc1 (stereo not given)	0.11	i	0.2%
101	COc1ccccc1Oc1ccc2c(c1)C(=O)N(c1ccccc1)C2=O	·	i	0.2%
102	COc1ccc(NC(=O)CCc2nc(-c3ccc(C)cc3)no2)cc1Cl	-0.25	i	-2.4%
103	CCCCn1c(N)c(-c2nc3ccccc3s2)c2c([N+](=O)[O-])nn(CC)c(=O)c21	·	i	-2.3%
104	CCOC(=O)C1C(=O)OC2(CCCC2)C1C(=O)OCC (stereo not given)	-0.81	i	3.0%
105	COc1ccc2[nH]c3nc(SCc4nnc(-c5ccc(C)cc5)o4)nnc3c2c1	-1.6	i	-1.1%
106	CCOC(=O)/C(C#N)=C1/C=CN(C)C(C)=N1	-1.5	i	4.9%
107	Cn1c(N)c(C(=O)COC(=O)C2(c3cccc(F)c3)CCCC2)c(=O)n(C)c1=O	-0.99	i	-3.4%
108	CC1(C)CC(=O)C2=C(C1)N(Cc1ccco1)C(=O)C2(NC(=O)c1cccnc1)C(F)(F)F (stereo not given)	-0.07	i	3.0%
109	CC(=O)Nc1nc(C)c(Oc2ccc(Cl)cc2Cl)c(=O)[nH]1	·	i	5.6%
110	O=S(=O)(c1ccc(-c2nnc(SCc3ccccc3)o2)cc1)N1CCCC1	-0.86	i	0.4%
111	COCCN(Cc1cc2ccccc2[nH]c1=O)C(=O)c1ccccc1OC	1.3	i	-3.8%

Bioassay records as filed in PubChem.
